A1 inhib: A1 inhibition; MEF A1-2A-BIM cells, caspase-Glo luminescence, 3 h; percent of clofoctol signal, DMSO as zero; caspase activation, % (no concentration beside the values); hit rate 0.51% among 21,000;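 active = most replicate scores above 10, or exactly half above 10 with mean activity above 10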;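 also: effector caspase 3 and 7 activity cleaving a DEVD luciferin substrate; 50 nL library stock added to about 30 µL; numbers are from one replicate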
BJeLR viab HTS: lowers viability of BJeLR cells | hit rate 0.64% among 30,000 | viability loss activity score, % (no concentration beside the values) | BJeLR fibroblasts viability, CellTiterGlo ATP luminescence, 48 h; HRASV12, hTERT and SV40 LT/ST transformed; in the data active = viability loss activity score above about 50%; about a fifth of its hits are not listed in these tables;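 also: higher score means fewer live cells and less ATP luminescence; stock transfer was 50 or 100 nL into about 30 µL; 0% = vehicle wells and 100% = a reference killing control; one replicate is shown; the record names a cut of 85%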
Starred values were filed as active, the others as inactive; / = no result given. Some of the compounds tested. The share of hits here may be higher or lower than overall.

SMILES	A1 inhib	BJeLR viab HTS
CC(C)NC(=O)Nc1ccc2c(c1)C(=O)N([C@H](C)CO)C[C@H](C)[C@H](CN(C)S(=O)(=O)c1ccc(Cl)cc1)O2	-0.3	-4.1
FC(F)(F)c1cc(Oc2ccc(Cl)cc2)c2cc(Cl)ccc2n1	0.0	0.1
COc1cc(C2c3cc(O[C@@H]4O[C@H](CO)[C@@H](O)[C@H](O)[C@H]4O)c(OC)cc3CC(CO)C2CO)ccc1O (some centres undefined)	-0.2	4.7
C[C@@H]1CN([C@H](C)CO)C(=O)c2cccc(NS(=O)(=O)c3ccc(F)cc3)c2O[C@@H]1CN(C)C(=O)Nc1ccc2c(c1)OCO2	/	-2.7
CCOC(=O)CSc1n[nH]c(=S)s1	0.2	-0.7
C[C@@H]1CN([C@@H](C)CO)C(=O)c2cc(NC(=O)CCN3CCOCC3)ccc2O[C@@H]1CN(C)Cc1ccncc1	0.9	1.4
O=C(NCCNc1ncc(C(F)(F)F)cc1Cl)C(F)(F)Sc1ccccc1	-0.6	7.1
COc1ccc(C2CC(C)=NN2C=O)cc1OC (centres undefined)	-0.1	-1.4
COC(=O)C(C(C)C)N1C(=O)C2C3C=CC(C3)C2C1=O (centres undefined)	0.8	-3.1
CCC(C)NC(=O)c1csc2c1CCCC2 (centres undefined)	-0.7	-1.2
COc1ccc(/C=C/C(=O)Nc2ccc(N3CCOCC3)c(Cl)c2)cc1	-0.1	2.0
COc1ccc(S(=O)(=O)Nc2ccc3c(c2)C(=O)N([C@H](C)CO)C[C@H](C)[C@@H](CN(C)Cc2ccncc2)O3)cc1	1.1	0.1
CCOC(=O)N1CCN(C(=O)c2cnn3ccccc23)CC1	-0.1	12
Cc1ccc(S(=O)(=O)N(C)C[C@H]2Oc3c(NC(=O)c4nc5ccccc5s4)cccc3C(=O)N([C@@H](C)CO)C[C@@H]2C)cc1	/	0.1
CNC[C@H]1Oc2c(NC(=O)Nc3ccc(F)cc3)cccc2C(=O)N([C@@H](C)CO)C[C@H]1C	/	3.3
COc1ccc(CC(=O)N2CCC(c3ccccc3)C2)cc1 (centres undefined)	-1.1	-11
COc1ccc(S(=O)(=O)Nc2ccc3c(c2)C(=O)N([C@H](C)CO)C[C@@H](C)[C@H](CN(C)Cc2ccc(C(=O)Nc4ccccc4N)cc2)O3)cc1	/	-1.2
CC1CCc2c(cc(-c3ccccc3)n2-c2ccc(C(=O)NCCN3CCN(C)CC3)cc2)C1 (centres undefined)	/	11
NC(=O)/C(=C/c1ccc2c(c1)OCO2)NC(=O)c1ccc(Br)cc1	0.5	1.4
NC(=O)c1c(C(F)(F)F)cc(-c2ccccc2)nc1NCCO	-0.7	1.3
C[C@@H]1CN([C@@H](C)CO)C(=O)c2cc(NC(=O)Cc3cn(C)c4ccccc34)ccc2O[C@H]1CN(C)Cc1ccc(C(=O)O)cc1	1.9	5.2
C[C@@H]1CN([C@H](C)CO)C(=O)c2cc(NS(=O)(=O)c3ccc(F)cc3)ccc2O[C@@H]1CN(C)Cc1ccc2c(c1)OCO2	-0.5	-0.2
O=C(Cn1nc(-c2ccccc2)ccc1=O)N1CCOCC1	-0.2	-1.7
C[C@H](CO)N1C[C@H](C)[C@@H](CN(C)Cc2ccc(-c3ccccc3)cc2)Oc2ccc(NS(=O)(=O)c3cccs3)cc2C1=O	-0.4	1.4
CC(=O)N(CCN(C)C)c1nc2cc(C)cc(C)c2s1	0.9	0.3

Overlap with the part before: 3 entries, then new ones.
SMILES	A1 inhib	BJeLR viab HTS
O=C(Cn1nc(-c2ccccc2)ccc1=O)N1CCOCC1	-0.2	-1.7
C[C@H](CO)N1C[C@H](C)[C@@H](CN(C)Cc2ccc(-c3ccccc3)cc2)Oc2ccc(NS(=O)(=O)c3cccs3)cc2C1=O	-0.4	1.4
CC(=O)N(CCN(C)C)c1nc2cc(C)cc(C)c2s1	0.9	0.3
CC(C)NC(=O)N(C)C[C@H]1Oc2ccc(NC(=O)CCCN(C)C)cc2C(=O)N([C@H](C)CO)C[C@H]1C	0.7	-0.3
CC(C)NC(=O)N(C)C[C@@H]1Oc2ccc(NS(C)(=O)=O)cc2C(=O)N([C@H](C)CO)C[C@@H]1C	0.5	1.0
FC(F)(F)c1ccccc1Nc1nc(-c2cccnc2)cs1	/	8.7
O=C(OCn1nnc2ccccc2c1=O)C12CC3CC(CC(C3)C1)C2	/	0.4
C=C(C)Cn1c(SCC(=O)O)nnc1-c1ccccc1	0.1	-0.9
COC(=O)C(Cc1c[nH]c2ccccc12)NS(=O)(=O)c1cccc2nonc12 (centres undefined)	0.1	-3.7
C[C@H](CO)N1C[C@H](C)[C@H](CN(C)Cc2ccc(-c3ccccc3)cc2)Oc2c(NS(C)(=O)=O)cccc2C1=O	/	-0.5
O=C(CCN1C(=O)C2C3C=CC(C3)C2C1=O)Nc1ccccc1 (centres undefined)	0.6	-4.7
C[C@@H]1CN([C@H](C)CO)C(=O)c2cccc(NC(=O)c3nc4ccccc4s3)c2O[C@H]1CN(C)C(=O)Nc1ccc(F)cc1	/	1.4
CN(C)S(=O)(=O)c1ccc(C(=O)Nc2nc3c(s2)CCc2ccccc2-3)cc1	-0.3	11
C[C@H](CO)N1C[C@H](C)[C@H](CN(C)CC2CCCCC2)Oc2c(NC(=O)C3CCCCC3)cccc2C1=O	/	4.1
COC(=O)c1scc(C#N)c1N=CN(C)C	-0.4	-1.0
C[C@H](CO)N1C[C@H](C)[C@@H](CN(C)Cc2ccncc2)Oc2ccc(NS(C)(=O)=O)cc2C1=O	1.2	-2.7
C[C@H]1CN([C@@H](C)CO)C(=O)c2cccc(NC(=O)Nc3ccc(C(F)(F)F)cc3)c2O[C@H]1CN(C)CC1CC1	/	1.2
COC(=O)c1ccc(NC(=O)CSC(=S)N2CCOCC2)cc1	-0.1	2.2
C[C@@H]1CN([C@@H](C)CO)C(=O)c2cccc(NC(=O)Nc3ccccc3)c2O[C@H]1CN(C)CC1CC1	/	-2.9
COc1ccc(CC(=O)Sc2nc3ccccc3o2)cc1	-0.7	4.7
C[C@H]1CN([C@@H](C)CO)C(=O)c2cc(NS(=O)(=O)c3ccc(Cl)cc3)ccc2O[C@H]1CN(C)Cc1ccc2c(c1)OCO2	0.2	-0.1
Cc1noc(C)c1NC(=O)N(C)C[C@@H]1Oc2ccc(NS(=O)(=O)c3cccs3)cc2C(=O)N([C@@H](C)CO)C[C@H]1C	-0.1	3.5
CCc1ccc(CNC(=O)c2ccc(Sc3ccc(C)cc3)c(NC(C)=O)c2)cc1	-0.3	-3.8
CCn1c(=O)c(=O)n(CC)c2cc(S(=O)(=O)NC3CCCCC3)ccc21	0.2	4.9
N#Cc1c(-c2ccc3c(c2)OCO3)cc(-c2ccccc2O)[nH]c1=O	0.8	1.6
Cc1noc(C)c1NC(=O)N(C)C[C@H]1Oc2c(NC(=O)C3CC3)cccc2C(=O)N([C@@H](C)CO)C[C@H]1C	/	0.7
CN(CC(=O)N1CCN(c2ccccc2)CC1)S(=O)(=O)c1ccccc1	-0.4	-1.8
Cc1cc(C)c(S(=O)(=O)Nc2ccc3[nH]c(=O)[nH]c3c2)c(C)c1	/	10

Random excerpt: 6 compounds from above
SMILES	A1 inhib	BJeLR viab HTS
C=C(C)Cn1c(SCC(=O)O)nnc1-c1ccccc1	0.1	-0.9
C[C@@H]1CN([C@@H](C)CO)C(=O)c2cccc(NC(=O)Nc3ccccc3)c2O[C@H]1CN(C)CC1CC1	/	-2.9
Cc1cc(C)c(S(=O)(=O)Nc2ccc3[nH]c(=O)[nH]c3c2)c(C)c1	/	10
Cc1noc(C)c1NC(=O)N(C)C[C@H]1Oc2c(NC(=O)C3CC3)cccc2C(=O)N([C@@H](C)CO)C[C@H]1C	/	0.7
COc1ccc(CC(=O)Sc2nc3ccccc3o2)cc1	-0.7	4.7
O=C(OCn1nnc2ccccc2c1=O)C12CC3CC(CC(C3)C1)C2	/	0.4

Next compounds.
SMILES	A1 inhib	BJeLR viab HTS
O=C(Nc1cccc(Cl)c1)c1ccc(CS(=O)c2ccc(Cl)cc2)o1 (centres undefined)	0.7	-6.5
C[C@@H]1CN([C@H](C)CO)C(=O)c2cc(NS(C)(=O)=O)ccc2O[C@H]1CN(C)Cc1ccc(Oc2ccccc2)cc1	-0.2	0.7
COc1cc(=O)oc(C(C)C(C)O)c1CO (centres undefined)	-0.2	-1.9
C[C@H]1CN([C@@H](C)CO)C(=O)c2cccc(NC(=O)Nc3ccc(F)cc3)c2O[C@@H]1CN(C)Cc1ccccc1	/	15
O=C(CCn1nc(C(F)(F)F)cc1C1CC1)NCCC1=CCCCC1	/	1.6
CC(C)(C)C(O)(CC#CCN1CCCC1)c1ccccc1 (centres undefined)	/	6.1
CC(C)(C)C(=O)CSc1nc2ccccc2c(=O)n1CC1CC1	-0.6	-4.3
Cc1ccc(S(=O)(=O)N(C)C[C@H]2Oc3ccc(NC(=O)CCCN(C)C)cc3C(=O)N([C@H](C)CO)C[C@@H]2C)cc1	0.5	-1.5
CO/N=C1\CN(c2nc3c(cc2F)c(=O)c(C(=O)O)cn3C2CC2)CC1CN (centres undefined)	0.2	3.2
Cc1cccc(C)c1-n1c(C2CC3CCC2O3)n[nH]c1=S (centres undefined)	0.0	6.3
C[C@@H]1CN([C@@H](C)CO)C(=O)c2cccc(N(C)C)c2O[C@@H]1CN(C)Cc1ccc(C(F)(F)F)cc1	/	1.8
Nc1ccc2oc(-c3ccccc3)nc2c1	-6.3	2.2
Cc1ccc2c(c1)OC(=O)CC2c1ccccc1 (centres undefined)	/	-8.9
COc1ccc(NC(=O)Nc2cccc3c2O[C@H](CN(C)CC2CC2)[C@@H](C)CN([C@H](C)CO)C3=O)cc1	/	0.2
Cc1cccc(Oc2coc3cc(OC(=O)c4ccc(F)cc4)ccc3c2=O)c1	0.3	9.3
O=S(=O)(NC(c1ccccc1)c1ccccc1)c1ccccc1	-0.1	5.3
O=C(c1ccccc1)c1ccccc1C(=O)c1ccccc1	-0.8	-0.5
COc1ccc(S(=O)(=O)Nc2cccc3c2O[C@@H](CN(C)Cc2ccncc2)[C@@H](C)CN([C@H](C)CO)C3=O)cc1	/	-1.4
CCCNC(=O)c1cc2oc3ccccc3c2n1C	-0.2	-1.4
CC(=O)N(Nc1ccccc1)c1ccccc1	-0.2	5.5
Cc1ccc(Nc2nc(C)cc(C)c2C(N)=O)cc1	0.4	-5.7
CCN1C(=O)/C(=C2\SC(=S)N(c3cccc(Cl)c3)C2=O)c2ccccc21	-0.4	-0.1
COc1cc2c(cc1OC)[C@@H]1C(=O)c3ccc4c(c3O[C@@H]1CO2)CCC(C)(C)O4	-0.9	7.7
Cc1noc(C)c1NC(=O)Nc1ccc2c(c1)C(=O)N([C@H](C)CO)C[C@@H](C)[C@@H](CN(C)C(=O)Nc1ccccc1)O2	0.1	-2.0
COc1cc2c3cc1Oc1c(OC)c(OC)cc4c1[C@@H](Cc1ccc(OC(=O)c5ccc([N+](=O)[O-])cc5)c(c1)Oc1ccc(cc1)C[C@@H]3N(C)CC2)N(C)CC4	-0.2	3.3

Next section:
SMILES	A1 inhib	BJeLR viab HTS
COC(=O)[C@@H](NC(=O)c1cc(C)on1)C(C)C	-0.1	2.8
CC1=NN(C(=O)CSc2nnc(-c3ccncc3)o2)C(C)(O)C1 (centres undefined)	1.0	-2.6
Cc1csc2nc(CNS(=O)(=O)c3ccccc3)cn12	0.8	-1.5
C[C@@H]1CN([C@H](C)CO)C(=O)c2cccc(NC(=O)Nc3ccccc3)c2O[C@H]1CN(C)Cc1ccc(-c2ccccc2)cc1	/	4.6
C[C@@H]1CN([C@@H](C)CO)C(=O)c2cccc(NS(=O)(=O)c3ccc(F)cc3)c2O[C@H]1CN(C)CC1CCCCC1	/	-0.3
Cc1noc(C)c1NC(=O)N(C)C[C@H]1Oc2c(NC(=O)NC(C)C)cccc2C(=O)N([C@@H](C)CO)C[C@H]1C	/	-0.2
Cc1noc(C)c1NC(=O)N(C)C[C@@H]1Oc2ccc(NC(=O)C3CCCCC3)cc2C(=O)N([C@H](C)CO)C[C@H]1C	0.1	0.1
C[C@@H]1CN([C@H](C)CO)C(=O)c2cc(NC(=O)NC3CCCCC3)ccc2O[C@H]1CN(C)Cc1ccc(C(F)(F)F)cc1	0.2	-0.5
CN(C)CCOC(=O)COc1ccc(Cl)cc1	0.0	-4.6
CCOC(=O)Cc1c(C)nc(Cc2ccc(OC(C)C)cc2)[nH]c1=O	0.4	-6.6
C[C@@H]1CN([C@H](C)CO)C(=O)c2cc(NC(=O)Cn3cnnn3)ccc2O[C@H]1CN(C)S(=O)(=O)c1cccs1	0.5	2.3
C[C@H]1CN([C@@H](C)CO)C(=O)c2cc(NC(=O)Nc3cccc4ccccc34)ccc2O[C@@H]1CN(C)Cc1ccc2c(c1)OCO2	-0.3	-1.5
COc1ccc(CN=CC2=C(O)CC(C)(C)CC2=O)cc1	0.4	-0.6
CCOC(=O)c1sc(N(Cc2nc(-c3cccc(C)c3)oc2C)C(C)=O)c(C#N)c1C	-0.7	34
CS(=O)(=O)Nc1ccc(-c2nc3cccnc3s2)cc1	-5.5	0.5
C[C@@H]1CN([C@H](C)CO)C(=O)c2cccc(NC(=O)c3ccc(-c4nccs4)cc3)c2O[C@H]1CN(C)Cc1ccc(C(F)(F)F)cc1	/	0.6
C[C@@H]1CN([C@H](C)CO)C(=O)c2cccc(NC(=O)c3ccc(-c4nccs4)cc3)c2O[C@H]1CN(C)S(=O)(=O)c1ccc(Cl)cc1	/	-6.6
COc1ccc(NC(=O)N(C)C[C@@H]2Oc3c(NC(=O)Nc4ccc5c(c4)OCO5)cccc3C(=O)N([C@@H](C)CO)C[C@@H]2C)cc1	/	-2.1
CCOc1ccc(-c2cn3c(n2)sc2cc(C(=O)N(C)Cc4ccccc4)ccc23)cc1	-0.6	6.0
CC(=O)NCCOc1ccccc1Cl	-0.2	1.9

Source: PubChem (Broad Institute)
